# Screens from PubChem.
# 26S disassembly – blocks ATP-dependent breakdown of the yeast 26S proteasome; 24,000 compounds, 0.2% hits; AID 751; anti-FLAG beads, GFP-proteasome disassembly, flow cytometry; inhibition of disassembly, % (concentration not given with the values);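 active means above 40%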;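 further: plate controls were ATP control with full disassembly for no effect and ATP-gamma-S intact proteasomes for full effect; higher percent means more bead fluorescence retained so stronger block of disassembly; stock transfer was 100 nL into about 10 µL; wells with too few beads may also be inconclusive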
# VCAM-1 up – enhancers of VCAM-1 display on endothelial cells, cell-based, plate reader, pooled HUVEC, TNFa stimulus (AID 455) | HUVEC TNFa-induced VCAM-1 immunofluorescence, plate reader; numbers were filed only for top-ranked candidate wells | augmentation, % at 5 µM | 10,000 compounds, 0.2% hits;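 active means a compound raising TNF-alpha-driven VCAM-1 surface staining, with its hit status upheld on visual or statistical review; inactive means the rest, including hits rejected on review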;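 further: 0% = TNFa with vehicle and 100% = strongest image-checked hit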
# The depositor's hits bear a star; i = inactive; · = no result given. A portion of the library, so the mix of outcomes need not match the whole.
SMILES,26S disassembly,VCAM-1 up
CCCN(CCC)S(=O)(=O)c1ccc(C(=O)NCc2ccc3c(c2)OCO3)cc1,-1.2,·
CCCCN(CC)C(=O)C1CCC(=O)N(c2ccc(OC)cc2)C1c1ccc(OC)c(OC)c1 (stereo not given),-0.6,·
Cc1cc2c(cc1C)/C(=C\C(N)=O)NC(C)(C)C2,-1.8,·
CCCCC(CC)C(=O)Nc1ccc(Cl)cn1 (stereo not given),0.2,i
COc1ccc(-n2c(=O)cc(N3CCN(Cc4ccccc4)CC3)[nH]c2=O)cc1,0.0,i
COc1ccc(N2C(=O)CCC(C(=O)N3CCCCC3)C2c2ccc(OC)c(OC)c2)cc1 (stereo not given),0.0,i
Cc1nnc(NC(=O)c2ccc(S(=O)(=O)N3CCCCCC3)cc2)o1,-1.1,·
O=C(Nc1ccc2c(c1)OCCO2)C1CCCN(S(=O)(=O)c2cccs2)C1 (stereo not given),0.1,·
CCOc1nc(OCC)nc(-n2cc(-c3ccccc3)nn2)n1,-0.2,·
CCN1CCN(C(=O)Cn2ncc3c2-c2ccccc2OC3)CC1,0.0,·
CN(C)CCC(=O)c1ccc(Cl)cc1,0.1,·
Cn1c(C(=O)N2CCCC(C(=O)NCCN3CCOCC3)C2)cc2sccc21 (stereo not given),-1.5,·
Cc1nnc(NC2CCCCC2)[nH]c1=O,-1.7,i
O=C1c2cccnc2C(Nc2ccc(S(=O)(=O)N3CCCCCC3)cc2)N1Cc1ccccc1 (stereo not given),-0.8,·
Cc1onc(-c2ccccc2)c1C(N)=O,1.5,i
Cc1ccc(S(=O)(=O)N2CCOCC(=O)NCCOCCNC(=O)COCC2)cc1,0.5,i
O=C(NCCN1C(=O)C2C3C=CC(C3)C2C1=O)Nc1ccccc1O (stereo not given),0.9,·
CCOc1c(C)cc2[nH]c(CCC(=O)O)nc2c1C,1.3,i
C=CCn1nnc2sc3c(c2c1=O)CCC(C)C3 (stereo not given),-1.1,·
CC(=O)N1CCN(c2ccc(NCc3ccc(C)s3)cc2)CC1,-1.3,·

# 3 structures already listed, arranged by molecular weight, descending:
SMILES,26S disassembly,VCAM-1 up
O=C1c2cccnc2C(Nc2ccc(S(=O)(=O)N3CCCCCC3)cc2)N1Cc1ccccc1 (stereo not given),-0.8,·
CCN1CCN(C(=O)Cn2ncc3c2-c2ccccc2OC3)CC1,0.0,·
CCCCC(CC)C(=O)Nc1ccc(Cl)cn1 (stereo not given),0.2,i

# (listing goes on)
SMILES,26S disassembly,VCAM-1 up
COc1ccc(-n2nnc3c(=O)n(C/C=C/c4ccccc4)cnc32)cc1,0.1,i
CC(C)=CC(=O)N1CCCc2ccccc21,-0.6,i
Cc1nnc(C)c2c(C)n(Cc3ccc4c(c3)OCO4)c(C)c12,0.4,i
Cc1nc2ccc(S(=O)(=O)N(C)CC(=O)N3CCc4ccccc4C3)cc2s1,-0.1,·
CC(=O)c1c(C)nc(-c2ccc3c(c2)OCO3)n1O,-0.5,·
O=C1CCCC2=C1C(c1cccc(Br)c1)n1nc(-c3ccco3)nc1N2 (stereo not given),1.9,i
CCCNS(=O)(=O)c1ccc(OCC(=O)Nc2ccccc2F)cc1,-1.1,i
CC1CN(c2nc3ccccc3nc2C(C#N)C(=O)OC2CCCCC2)CC(C)O1 (stereo not given),3.5,i
COc1ccc(NC(=O)CN2CCN(S(=O)(=O)c3ccc(Cl)cc3)CC2)cc1Cl,-2.7,·
CC(=O)Nc1cccc(NC(=O)CSc2nnc(Cc3cccn3C)n2-c2ccc(C)cc2)c1,-1.0,·
Nn1c(-c2ccccn2)nnc1-c1ccccn1,-0.8,·
CCCCNS(=O)(=O)c1ccc(OC)c2ncccc12,-1.1,i
Cc1cccc2sc(NC(=O)Cn3cccc3)nc12,-1.1,i
CCOc1ccc(OCC)c(NC(=O)C2CCN(S(=O)(=O)c3cnc[nH]3)CC2)c1,-1.3,i
Cc1cc(C)nc(N2CCCC(C(=O)Nc3nc4ccc(S(C)(=O)=O)cc4s3)C2)n1 (stereo not given),-1.0,i
Cc1nnc2n(C3CCCCC3)c(=O)c3c4c(sc3n12)CCC4,2.2,·
CC(C)C(=O)NC(C)C(c1cccs1)N1CCN(c2ccccc2)CC1 (stereo not given),0.5,·
O=[n+]1c2c(n([O-])c3cc(F)c(N4CCCC4)cc31)CCC2,2.2,i
CC1CCCCN1CCNc1nc(=S)[nH]c2ccccc12 (stereo not given),0.7,·
CC1CCC(C(=O)NC(C(=O)N2CCC(N3CCCCC3)CC2)C(C)C)CC1 (stereo not given),0.6,·

# Compound profiles (already shown).
# CC(=O)N1CCN(c2ccc(NCc3ccc(C)s3)cc2)CC1 is entered as 26S disassembly: -1.3; VCAM-1 up: ·
# O=C1CCCC2=C1C(c1cccc(Br)c1)n1nc(-c3ccco3)nc1N2 (stereo not given) is entered as 26S disassembly: 1.9; VCAM-1 up: i

# The list continues.
SMILES,26S disassembly,VCAM-1 up
CC(C)(C)OC(=O)N1CCC(C(=O)N[C@H](Cc2ccccc2)C(=O)O)CC1,-2.3,i
COc1ccccc1CNS(=O)(=O)c1ccc2[nH]cc(C(=O)O)c(=O)c2c1,-0.1,·
COc1ccc(C)cc1S(=O)(=O)N(CC(=O)O)c1ccccc1,0.9,i
CC(=O)Nc1ccc(NC(=O)Oc2ccccc2)cc1,-0.5,·
COc1cccc(C2c3c(oc4ccccc4c3=O)C(=O)N2CCCN2CCOCC2)c1 (stereo not given),1.2,·
CCOc1ccc(C(=O)N2CCN=C2SC)cc1OCC,0.9,·
O=C(c1cc(-c2ccco2)on1)N1CCN(C(c2ccccc2)c2ccccc2)CC1,-1.3,·
N#Cc1ccc(N2CCN(C(=O)c3cccc(F)c3)CC2)c(F)c1,0.9,·
CCn1c(C(=O)NCCCN2CCc3ccccc3C2)cc2sccc21,0.1,·
Oc1c(CN2CCc3ccccc3C2)cc(Cl)c2cccnc12,-0.5,·
CCOc1ccc(-n2c(Cc3cc(=O)[nH]c(=O)[nH]3)nnc2SCC(=O)NC2CCCC2)cc1,-2.0,·
O=C(Cc1ccccc1)n1nc(-c2ccccc2)nc1NCc1ccco1,-1.0,·
Cc1cc(NC(=O)CSc2ccc3nnc(-c4ccc(Cl)cc4)n3n2)no1,0.5,·
COc1ccc(N2CCN(C(=O)CCCn3c(=S)[nH]c4cc5c(cc4c3=O)OCO5)CC2)cc1,-0.2,·
O=S(=O)(Nc1ccc2c(c1)OCO2)c1ccc(Br)s1,-0.4,i
COc1cccc(-n2ccnc2SCC(=O)Nc2cc(OC)ccc2OC)c1,-0.7,·
Cc1ccc2cc(CCNC(=O)c3ccc(Br)o3)c(=O)[nH]c2c1,-0.8,·
O=C(O)C1CC(=O)N(c2ccc(Br)cc2)C1 (stereo not given),1.5,i
COc1ccc(C2C(=O)N(C3CCCCC3)CC(=O)N2CCc2ccccc2)cc1OC (stereo not given),-2.4,·
Cc1ccn2cc(CCNC(=O)CC(C)(C)C)nc2c1,-1.1,i
CCOC(=O)c1ccc(NC(=O)CCc2nc(-c3ccc(C)cc3)no2)cc1,1.8,i
C#CCN(C)Cc1ccccc1,-0.1,i
CCOc1ccc(C(C)=O)cc1N1C(=O)C2C3C=CC(C3)C2C1=O (stereo not given),-0.6,·
CCOc1cc(C2C(C#N)=C(N)Oc3n[nH]c(-c4ccccc4)c32)ccc1O (stereo not given),-2.1,·
O=C(Nc1sc2c(c1C(=O)NCc1ccco1)CCCC2)c1ccc2c(c1)OCO2,1.9,i
Cc1cc(N)c(NC2=CC(=O)CC(C)(C)C2)cc1C,-1.4,·
COc1ccc(OC)c2[nH]c(=O)c(CCNS(=O)(=O)c3ccccc3)cc12,-1.0,·
COc1cccc(OCc2nc3c4cnn(-c5ccccc5)c4ncn3n2)c1,1.7,i
COc1ccc2c(c1)CCc1c(C(=O)NCCN3CCOCC3)noc1-2,-2.0,·
COc1ccc(-c2nc(CSCC(=O)N3CCN(C4CCCCC4)CC3)c(C)o2)cc1OC,-1.0,·
O=C(Nc1ccc2c(c1)OCCO2)C1CCCN1S(=O)(=O)c1cccc2cccnc12 (stereo not given),-0.5,i
Cc1ccccc1-c1nc(CS(=O)(=O)CC(=O)NCCN2CCOCC2)c(C)o1,1.0,·
C=CCOc1ccc(C2N3CC4(C)CN2CC(CCC)(C3)C4=O)cc1 (stereo not given),-0.8,·
CC(C)OC(=O)CSc1nnc(-c2ccc(O)cc2)n1Cc1ccccc1,2.4,i
COc1ccc(C(=O)N2CCCCC2)cc1S(=O)(=O)Nc1ccccc1,0.0,·
COc1ccc(N2CCN(Cc3cc(=O)oc4cc(C)c(Cl)c(C)c34)CC2)cc1,-1.0,i
CCOC(=O)C1CCN(C(=O)CC(NS(=O)(=O)c2ccc(OC)cc2)C(C)C)CC1 (stereo not given),1.0,·
Cc1noc(C)c1S(=O)(=O)N1CCC(C(=O)NCCN2CCC(C)CC2)CC1,3.2,·
CC1CC(C(O)c2ccccn2)C(=O)C(C(O)c2ccccn2)C1 (stereo not given),-0.2,·
COCc1cc(C)c2c(N)c(C#N)sc2n1,0.7,i
CSc1ccccc1NC(=O)c1cc(-c2cccs2)on1,-0.3,·
COc1ccc(N(C(=O)c2ccco2)C(C(=O)NC2CCCC2)c2ccc(N(C)C)cc2)cc1OC (stereo not given),-0.8,i
Cc1ccc(/C=c2\sc3nc(-c4ccco4)nn3c2=O)o1,8.1,·
CC(c1ccccc1)N1CC(C(=O)NC2CCCC2)CC1=O (stereo not given),-1.9,·
COc1ccc(N(CC(=O)NC2CCCC2)C(=O)Cn2nnc(-c3ccc(C)cc3)n2)cc1,0.4,i
CSc1nc(C)cc(Oc2ccc(=O)n(C)n2)n1,0.1,i
Cn1c2ccccc2c2c(C(=O)O)cn(C3CCCC3)c(=O)c21,0.4,·
COc1cc(S(=O)(=O)n2nnc3ccccc32)c(OC)cc1Cl,1.0,i
CCCC1C(C#N)=C(N)Oc2n[nH]c(C(C)(C)C)c21 (stereo not given),-0.3,i
COc1ccccc1N1CCN(C(=O)CSc2nc3ncnc(N)c3[nH]2)CC1,-0.5,i
Cn1c(=O)cc(SCC(=O)NCc2ccco2)c2ccccc21,0.5,·
O=C1c2cccc3c(Cl)ccc(c23)C(=O)N1O,-1.1,·
CC1CCN(C(=O)c2ccc(C(=O)N3CCC(C)CC3)cc2)CC1,-0.8,i
COc1ccccc1CNS(=O)(=O)c1c(C)noc1C,-2.5,·
CCC(=O)N1CCc2cc(Br)cc(S(=O)(=O)NCc3ccco3)c21,0.9,·
COc1ccccc1NC(=O)c1cc2n(n1)C(C(F)(F)F)CC(c1ccc3c(c1)OCO3)N2 (stereo not given),-0.7,i
COc1ccccc1N1CCN(C(=O)CCNS(=O)(=O)c2ccc3c(c2)CCC(=O)N3)CC1,-0.4,i
Cc1cccc(CN2CCN(CC(=O)NCCCN3CCCC3=O)C2=O)c1,-1.4,·
CCOC(=O)C(NC(C)=O)(NS(=O)(=O)c1ccccc1)C(F)(F)F (stereo not given),1.1,i
CCOC(=O)c1nc2sc3c(c2c(=O)[nH]1)CCCC3,1.1,i

# In another format: entries from further up
SMILES | 26S disassembly | VCAM-1 up
CC1CCN(C(=O)c2ccc(C(=O)N3CCC(C)CC3)cc2)CC1 | -0.8 | i
COc1ccc(N(CC(=O)NC2CCCC2)C(=O)Cn2nnc(-c3ccc(C)cc3)n2)cc1 | 0.4 | i
CC(c1ccccc1)N1CC(C(=O)NC2CCCC2)CC1=O (stereo not given) | -1.9 | ·
CCOC(=O)c1nc2sc3c(c2c(=O)[nH]1)CCCC3 | 1.1 | i
COc1ccccc1CNS(=O)(=O)c1c(C)noc1C | -2.5 | ·
Cn1c2ccccc2c2c(C(=O)O)cn(C3CCCC3)c(=O)c21 | 0.4 | ·

# (further entries)
SMILES,26S disassembly,VCAM-1 up
COc1ccc(OC)c(NC(=O)C2CCN(c3cc(-c4ccccc4)nc4ncnn34)CC2)c1,-2.2,i
Cc1ccc(C(=O)N(CN2CCCC2=O)c2ccc(F)cc2)cc1,1.7,·
Cn1nc(-c2ccc(Cl)cc2)c2cc(C(=O)N3CCC(N4CCCCC4)CC3)sc21,-1.5,·
Cn1c(Cn2c(=O)sc3ccccc32)nnc1SCC(=O)Nc1ccccc1F,-2.2,·
CN1CCN(C(c2cccc(C(F)(F)F)c2)c2nnnn2C(C)(C)C)CC1 (stereo not given),1.3,i
O=C(Nc1ccccc1)N(CCCN1CCOCC1)Cc1cccs1,-0.6,·
COc1cc2[nH]c(=O)n(Cc3ccc(C(=O)NCC4CCCO4)cc3)c(=O)c2cc1OC (stereo not given),2.6,·
COc1ccc(-c2onc(C)c2-c2ccccc2)c(O)c1,-4.4,i
O=c1[nH]c2ccsc2c(=O)n1-c1ccc(F)cc1,0.9,·
O=C(Nc1ccc(N2CCOCC2)c(F)c1)c1ccncc1,-0.1,i
O=C(Cn1cccc1C(=O)c1ccccc1)NCc1ccc2c(c1)OCO2,0.7,·
CCC(=O)Oc1c(S(=O)(=O)c2ccc(C)cc2)c(C)nn1C(C)(C)C,-0.8,·
O=C(NC1CCCCCCC1)C1CCN(S(=O)(=O)N2CCC3(CC2)OCCO3)CC1,-0.2,·
CCOC(=O)c1[nH]c(C)c(C(=O)NC2CCN(C(=O)OCC)CC2)c1C,-0.2,·
Cc1ccc(S(=O)(=O)C2(C(=O)N(C)C3CCCCC3)CC2)cc1,0.1,·
COc1ccc(C2C=C(c3ccccc3)Nc3ncnn32)cc1 (stereo not given),1.2,i
CCNC(=O)c1ccc(NS(=O)(=O)c2ccccc2)cc1,-1.3,i
CCCSc1n[nH]c(NC(C)=O)n1,0.4,·
Cn1c(SCC(=O)c2ccc(-c3ccccc3)cc2)nnc1-c1ccco1,5.1,i
COc1ccc(N(CC(=O)NCC2CCCO2)S(=O)(=O)c2c(C)noc2C)cc1 (stereo not given),-1.7,·
O=C(Nc1ccc(Cl)cc1C(=O)Nc1ccncc1)c1ccco1,-0.5,i
CCCCC(NC(C)=O)c1nc2ccccc2n1CCCC (stereo not given),0.7,·
